Compound activity deposited in PubChem by National Center for Advancing Translational Sciences (NCATS).
SARS PLP yeast – inhibitors of SARS-CoV papain-like protease in yeast; Potency, µM (top dose mostly 32.9 µM), for the others: at the top dose activity, positive = growth rescue; AID 485353; hit rate 0.19% among 330,000; S. cerevisiae expressing SARS-CoV PLpro, growth rescue; control for the full effect not named in the record; also: 0% is about no effect; nearly all actives have a fitted effect of over 55% in size; growth read by luminescence after 48 h
Cruzain Triton – inhibitors of Trypanosoma cruzi cruzain with detergent | Potency, µM, for the others: max response, negative = inhibition, usual class: inhibitors | hit rate 0.43% among 200,000 | purified cruzain, Z-FR-AMC fluorescence, 0.01% Triton | P25779; active = well fitted curve in the direction sought with a large enough effect; inconclusive = small, poorly fitted or top-dose-only effect, or another doubt; inactive = no such curve, though single readings can be large; an effect the other way counts as inactive or inconclusive;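 also: plate controls were neutral wells for no effect and buffer without enzyme for full effect; nearly all actives have a fitted effect of over 40% in size; top concentration of the series not given in the record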
Target sequence (P25779 123-467 limits assumed): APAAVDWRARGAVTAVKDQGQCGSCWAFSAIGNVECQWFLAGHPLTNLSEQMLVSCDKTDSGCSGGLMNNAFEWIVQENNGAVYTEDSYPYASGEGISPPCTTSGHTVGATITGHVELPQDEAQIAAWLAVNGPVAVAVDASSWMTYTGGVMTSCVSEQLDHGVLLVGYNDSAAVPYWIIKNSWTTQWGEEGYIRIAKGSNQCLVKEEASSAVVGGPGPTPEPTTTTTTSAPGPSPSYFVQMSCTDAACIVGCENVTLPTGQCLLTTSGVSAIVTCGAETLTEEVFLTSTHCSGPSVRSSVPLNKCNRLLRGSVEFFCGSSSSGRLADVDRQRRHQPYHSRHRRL
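Detergent-containing run (0.01% Triton X-100) in acetate buffer pH 5.5 with 5 mM DTT: enzyme at 1.5 nM final, 15 min compound preincubation at room temperature, then 2 uM Z-FR-AMC substrate. Activity taken as 60 s fluorescence increase at 360/450 nm.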
RE007 growth inh – less growth of the S. pombe RE007 Vpr strain; S. pombe RE007 Vpr strain, BacTiter-Glo ATP luminescence, 24 h; control for the full effect not named in the record; AID 651644; Potency, µM (doses to about 92.2 µM), for the others: at the highest dose activity change, negative = less growth; hit rate 0.21% among 360,000; active = well fitted falling curve with a large enough effect; inconclusive = small, poorly fitted or top-dose-only effect; inactive = no such curve, though single readings can be large or run the other way;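 also: % is scaled to controls: 0 for no effect and ±100 for the full control effect; nearly all actives have a fitted effect of over 50% in size; the assay follows cell death caused by Vpr and the record does not say whether a fall means rescue or toxicity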
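Fission yeast strain RE007, carrying one chromosomally integrated HIV-1 vpr copy, was seeded at OD 0.01 in PMG+AL medium with 23 nL pinned compound. After 24 h at 30 °C and 99% humidity, viability was read by BacTiter-Glo luminescence.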
2A StopGo – lowers the luciferase signal of an FMDV 2A StopGo reporter; AID 1159524; Potency, µM (top dose mostly 57.9 µM), for the others: top-dose signal change, negative = less light; human cells with a luciferase reporter of 2A StopGo recoding; control for the full effect not named in the record; hit rate 1.2% among 410,000; active = well fitted falling curve with a large enough effect; inconclusive = small, poorly fitted or top-dose-only effect; inactive = no such curve, though single readings can be large or run the other way; tested in HEK293T cells; also: % is scaled to controls: 0 for no effect and ±100 for the full control effect; nearly all actives have a fitted effect of over 45% in size; luciferase light after 4 h
MARV entry inh – Marburg virus entry inhibition; hit rate 1.8% among 300,000; Potency, µM (top dose mostly 37.8 µM), for inactives: top-dose activity change, negative = inhibition, most hits filed as inhibitors; Marburg virus pseudotyped entry inhibition, cell reporter; control for the full effect not named in the record; about a third of the inactives were read at about 46 µM; active = well fitted inhibition curve with a large enough effect; inconclusive = small, poorly fitted or top-dose-only effect, or effect the other way; inactive = flat fitted curve, though single readings scatter; tested in HEK293 cells; about a fifth of its hits are not listed in these tables; also: % is scaled to controls: 0 for no effect and ±100 for the full control effect; luciferase read-out
Cruzain noTriton – cruzain (T. cruzi) inhibition without detergent. purified cruzain, Z-FR-AMC fluorescence, no detergent. Potency, µM, for inactives: max response, negative = inhibition, most hits filed as inhibitors. hit rate 2.3% among 200,000. AID 1476; active = well fitted curve in the direction sought with a large enough effect; inconclusive = small, poorly fitted or top-dose-only effect, or another doubt; inactive = no such curve, though single readings can be large; an effect the other way counts as inactive or inconclusive;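 also: plate controls were enzyme without inhibitor for no effect and buffer without enzyme for full effect; nearly all actives have a fitted effect of over 40% in size; top concentration of the series not given in the record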
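Detergent-free condition (0.00005% Triton X-100) in acetate buffer pH 5.5 with DTT. 1.5 nM enzyme and compound were pre-mixed 15 min, then 2 uM Z-FR-AMC substrate added; reaction progress from fluorescence change between first and third reads (60 s).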
NS1 function inh – blocks influenza NS1 protein function | S. cerevisiae slowed by influenza A NS1, growth recovery by OD600 | Potency, µM (highest dose often 46.1 µM), for inactives: top-dose activity, positive = more growth | hit rate 0.4% among 270,000 | AID 2326; also: actives are rising curves; nearly all actives have a fitted effect of over 50% in size
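Growth recovery, yeast-based: influenza A NS1 expressed in S. cerevisiae causes slow growth, and suppressors are detected by OD600. The parent strain without NS1 is used as positive control.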
LASV entry inh – inhibitors of Lassa virus binding or cell entry; Lassa virus pseudotype entry inhibition, cell reporter; control for the full effect not named in the record; AID 540256; hit rate 1.2% among 300,000; Potency, µM (top dose mostly 37.9 µM), inactives show at the top dose activity change, negative = inhibition, hits mostly inhibitors; active means well fitted inhibition curve with a large enough effect; inconclusive means small, poorly fitted or top-dose-only effect, or effect the other way; inactive means flat fitted curve, though single readings scatter; tested in HEK293 cells; also: % is scaled to controls: 0 for no effect and ±100 for the full control effect; nearly all actives have a fitted effect of over 50% in size; luciferase read-out
* marks the source's active call; other numbers are inactive results; ? = inconclusive; / = not tested or not shown; [ ] = another dose, or the depositor's remark. Unless noted, calls follow the shape of the dose curve; as a rule, active means well fitted rising curve with a large enough effect; inconclusive means small, poorly fitted or top-dose-only effect; inactive means no such curve, though single readings can be large or run the other way. Potency is read from the fitted curve at half-maximal effect.

SMILES | SARS PLP yeast | Cruzain Triton | RE007 growth inh | 2A StopGo | MARV entry inh | Cruzain noTriton | NS1 function inh | LASV entry inh
COc1ccc(/C=N/Nc2nc(C(=O)O)cs2)cc1 | ? | / | -9.0% | -28.5% | / | / | 12.5% | /
CNC(=O)c1cccc2cccc(Sc3ccccc3C(=O)O)c12 | 0.3% | / | 3.7% | -8.9% | 2.1%[46.1 µM] | / | 6.7% | -21.2%[46.1 µM]
c1ccc(C2CCC(N3CCN(c4ccccc4)CC3)CC2)cc1 (centres undefined) | 5.1% | / | 0.5% | -16.4% | ? | / | 13.7% | 2.82µM*
O=C(CN1C(=O)COc2ccccc21)NCc1ccccn1 | -1.3% | 2.6% | 8.1% | 17.7% | 3.4% | -0.8% | 6.8% | 5.1%
COc1ccc(S(=O)(=O)NCCc2sc(C)nc2C)cc1F | / | -23.2% | / | 11.6% | / | -23.9% | / | -13.2%[46.1 µM]
Cc1ccc(CC2CC(=O)N(c3nc4ccccc4n3C)C2=O)cc1 (centres undefined) | 6.3% | -0.7% | -0.2% | 6.5% | ? | -3.7% | -0.3% | -10.2%
CC1CN(S(=O)(=O)c2ccc(F)cc2)C(C)N1C(=O)N1CCOCC1 (centres undefined) | -1.7% | / | -1.2% | 13.1% | 1.2% | / | -23.5% | -6.7%
COCCCNC(=O)c1ccc(C2SCC(=O)N2Cc2ccco2)cc1 (centres undefined) | 1.0% | / | 0.7% | -0.3% | 7.3%[46.1 µM] | / | / | 5.9%
CCCc1cc(-c2ccc(O)c(OCC)c2)c(C#N)c(N)n1 | -3.9% | -8.2% | 9.9% | -17.2% | -11.6% | -5.9% | -26.4% | 10.2%
Cc1onc(-c2ccccc2)c1C(=O)N1CCN(Cc2ccc3c(c2)OCO3)CC1 | -0.7% | / | -7.4% | -22.1% | / | / | -2.9% | /
Cc1ccc(S(=O)(=O)N2CCCCC2)cc1C(=O)NC1CCCCC1 | -5.4% | / | 29.6% | 14.9% | 16.7%[46.1 µM] | / | -8.4% | 0.7%
O=C(CSc1nnc(-c2ccc(Cl)cc2)o1)c1ccc([N+](=O)[O-])cc1 | / | -1.0% | / | -18.7% | -17.1%[46.1 µM] | -12.6% | / | 0.7%[46.1 µM]
CCN(CC)S(=O)(=O)c1ccc(N2CCCC2)c(C(=O)Nc2ccc(OC)c(Cl)c2)c1 | 2.8% | -4.4% | 12.0% | -20.9% | -9.0% | -1.0% | 5.4% | -2.9%
O=C(NNc1ncnc2c1cnn2-c1ccccc1)c1cccs1 | 3.1% | / | -0.3% | 26.8% | 1.4%[46.1 µM] | / | / | -18.3%
CCOc1ccc2[nH]cc(C(=O)NCCCN3CCOCC3)c(=O)c2c1 | -0.9% | / | 18.8% | 8.2% | -5.3%[46.1 µM] | / | -1.3% | /
CC(C)c1nc2sc3c(NCc4ccco4)ncnc3c2c2c1COC(C)(C)C2 | -0.4% | -7.9% | -9.6% | 0.0% | ? | ? | 11.3% | -22.1%
CC(C)(C)c1ccc(C2CC2C(=O)N/N=C\c2cc3ccccc3nc2Cl)cc1 (centres undefined) | 3.2% | 2.1% | -0.3% | -19.4% | -4.8% | 1.8% | 9.8% | ?
CCCCn1c(SCc2nnc(-c3ccccc3)o2)nc2c1c(=O)n(C)c(=O)n2C | -2.9% | 0.3% | -8.8% | 0.0% | -21.5% | 4.6% | -7.9% | 34.8%[14.3 µM]
CC(=O)Nc1cccc(C(=O)Oc2cccc(C)c2)c1O | -9.4% | 1.1% | -20.3% | 15.4% | -2.9% | -9.2% | -80.2% | 0.0%
CCOC(=O)CN1C2=NCCCN2c2ccccc21 | 0.2% | / | -5.8% | 2.0% | 4.8%[46.1 µM] | / | 3.3% | 0.4%
CC1=C(C(=O)Nc2ccc(CC(=O)NCc3ccccc3C)cc2)SCCO1 | -2.2% | / | -3.1% | 7.9% | / | / | -4.9% | /
Cc1nc2ccccc2n1CC(=O)NCCN1CCOCC1 | -18.5% | 0.4% | 9.3% | 8.8% | 11.5% | -19.7% | -6.9% | 10.7%
COc1ccccc1NC(=O)c1sc2nc(-c3cc4ccccc4oc3=O)[nH]c(=O)c2c1C | / | -5.7% | / | -20.7% | / | ? | / | 0.6%[46.1 µM]
COc1c(C(O)CC(C)C)ccc2c1C(=O)OCc1cc(C)cc(O)c1O2 (centres undefined) | 0.5% | / | 6.5% | ? | / | / | -3.4% | /
FC(F)(F)c1cccc(NC(=S)NC2CCCC2)c1 | -44.9% | -1.4% | -1.0% | -20.8% | ? | -0.8% | -40.7% | -3.3%
CC(=O)c1c(C)[nH]c(C(=O)OCC(=O)Nc2ccc(Cl)c(S(=O)(=O)N(C)C)c2)c1C | 0.5% | / | -3.6% | 28.2µM* | / | / | -12.3% | /
CCCOc1ccc(C(=O)NC(=S)NNC(=O)c2c(-c3ccccc3)noc2C)cc1 | 0.6% | / | -3.9% | -0.7% | / | / | -33.6% | /
Cc1ccc(N2CCN(c3nc4ccccc4n4nnnc34)CC2)c(C)c1 | / | -1.2% | / | 14.3% | 10.0%[46.1 µM] | -1.2% | / | 28.3%[46.1 µM]
FC(F)(F)c1ccc(Cl)c(-n2c(-c3cc(-c4ccco4)[nH]n3)n[nH]c2=S)c1 | 1.9% | / | -5.2% | -12.6% | -26.9% | / | 16.2% | -15.8%
CCOC(=O)N1CCC(NC(=O)c2cccs2)CC1 | -4.4% | / | -15.7% | -3.7% | ? | / | -3.4% | 1.2%
NS(=O)(=O)c1ccc(N2N=C(c3ccccc3)CC2c2ccccc2)cc1 (centres undefined) | -3.1% | 1.9% | 0.5% | -27.4% | ? | ? | 20.8% | ?
COc1ccc(C(=O)Nc2ccc3ccccc3c2)cc1 | 0.7% | / | -8.2% | -50.5% | / | / | -16.0% | /
Cc1ccc(NC(=O)C(C)Sc2nc(-c3ccccc3)cc(=O)[nH]2)cc1 (centres undefined) | -0.9% | / | 9.5% | 0.1% | / | / | -0.1% | /
CCN1CCN(c2ncc3c(n2)CC(c2ccc(OC)c(OC)c2)CC3=O)CC1 (centres undefined) | 1.9% | -1.4% | -19.1% | 20µM* | ? | -11.6% | 10.7% | ?
NNc1nc(Nc2ccc([N+](=O)[O-])cc2)nc(N2CCCCCC2)n1 | -1.6% | / | 20.2% | 12.6% | / | / | -8.0% | /
COc1ccc(CNC(=O)CSc2ncc3c(n2)-c2cc(Cl)ccc2N(Cc2ccccc2)S3(=O)=O)cc1 | / | -1.1% | / | -10.4% | / | 4.0% | / | -23.1%[46.1 µM]
CCCCNC(=O)C1CCN(C(=O)N2CC(C)Oc3ccc(Cl)cc32)CC1 (centres undefined) | / | -4.7% | / | ? | / | 2.4% | / | ?
COc1ccccc1Cn1cc(C(=O)c2ccccc2)c(=O)c2cc(OC)c(OC)cc21 | / | -5.8% | / | -16.0% | -22.8%[46.1 µM] | ? | / | -10.6%[46.1 µM]
CC(C)NC(=O)Cn1nc(C(F)(F)F)c2c1CCC2 | -16.9% | 8.4% | 0.5% | -20.0% | 6.3% | -1.6% | 13.8% | -0.8%
CCCN(c1nc(C)cc(OC)n1)S(=O)(=O)c1ccccc1 | -8.8% | -6.6% | 5.9% | -1.6% | -21.1% | -4.3% | -13.6% | 8.5%
CC(C)c1ccc(NC(=O)C2C3C=CC4(O3)C2C(=O)N(CCCN2CCOCC2)C4C(=O)NC2CCCCC2)cc1 (centres undefined) | 2.2% | / | -8.6% | -6.9% | 6.4%[46.1 µM] | / | -12.7% | /
Oc1ccc(N=Nc2ccc3c(c2)OCCO3)c(O)c1 | -0.9% | / | -26.4% | ? | / | / | 4.2% | /
OCc1cccc[n+]1Cc1ccccc1 | / | / | -1.9% | -0.2% | ? | / | / | ?
O=C(CNC(=O)c1cccc(F)c1)NC1CC1 | -2.4% | / | 5.2% | -11.3% | 7.1% | / | / | -1.2%
N/C(=N\OC(=O)c1ccccc1Cl)c1cccc([N+](=O)[O-])c1 | -1.2% | / | 5.6% | 13.1% | / | / | -41.7% | /
Cc1ccc2c(c1)N(CC(=O)Nc1ccccc1F)C(=O)CO2 | 1.8% | / | 18.0% | -7.5% | / | / | 13.9% | /
CC(Nc1ccc(Br)cn1)c1cc(Cl)ccc1O (centres undefined) | -32.8% | -0.1% | ? | 0.0% | -7.4% | -4.7% | -158.2% | -18.5%
CCCOc1ccc2c3c(c(=O)oc2c1OCCC)CCCC3 | -18.5% | -3.8% | -12.5% | -12.6% | ? | -2.7% | 2.1% | ?
CCOC(=O)c1cnc2ccc(OCC)cc2c1NCc1ccccc1 | -7.9% | -3.1% | -4.5% | ? | ? | 2.1% | -101.7% | ?
O=C(COc1ccc(S(=O)(=O)NC2CCCCC2)cc1)NC1CCCCC1 | 17.1% | -3.2% | 8.1% | 9.3% | -15.8% | -4.0% | -2.2%[9.22 µM] | -21.6%
CCCCNCC1CCCO1 (centres undefined) | 1.2% | / | 2.4% | -9.2% | 1.1%[46.1 µM] | / | 3.9% | -2.1%
Cc1c(NC(=O)COC(=O)CCc2c[nH]c3ccccc23)c(=O)n(-c2ccccc2)n1C | -1.9% | / | -8.0% | -9.5% | 16.9% | / | 2.6% | 18.2%
O=C(CCCCCCCC(=O)N1CCCC1)N1CCCC1 | / | / | 8.1% | -7.5% | -1.7%[46.1 µM] | / | / | 0.0%[46.1 µM]
CCOc1cc(C(=O)Nc2cc(C)ccc2C)ccc1OCC(=O)N1CCCCC1 | 16.6% | -3.3% | 0.7% | 0.0% | -0.2% | 12.2% | -5.7% | 6.8%
Cc1ccc(-n2c(=O)c3sccc3n(CC(=O)NC3CCCC3)c2=O)cc1 | 0.7% | / | 3.9% | 31.9%[activator] | 5.0%[46.1 µM] | / | 4.8% | -4.8%[46.1 µM]
CCOc1cc(N2CCOCC2)c(OCC)cc1NC(=O)CN1CCC(Cc2ccccc2)CC1 | 11.4% | -0.1% | -0.3% | -37.4% | 1.4% | 24.2% | 3.5% | 9.5%
